Mtb MenB inh = M. tuberculosis MenB inhibitors, primary screen, biochemical, absorbance | 1,4-dihydroxy-2-naphthoyl-CoA synthase (Mycobacterium tuberculosis (strain ATCC 25618 / … | MenB enzyme assay, absorbance read-out; some hits fall short of the stated cut | inhibition, %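 (about 12 µg/mL by stock and volumes)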 | hit rate 0.43% among 100,000 | AID 540299, 2011;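 active = mean of two replicates above 30%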;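 note: 0% = no compound and 100% = wells with inactive enzyme; the first replicate is given; strong numbers were not always called active; inactives centre near -10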
Target sequence (P9WNP5 whole entry, looked up): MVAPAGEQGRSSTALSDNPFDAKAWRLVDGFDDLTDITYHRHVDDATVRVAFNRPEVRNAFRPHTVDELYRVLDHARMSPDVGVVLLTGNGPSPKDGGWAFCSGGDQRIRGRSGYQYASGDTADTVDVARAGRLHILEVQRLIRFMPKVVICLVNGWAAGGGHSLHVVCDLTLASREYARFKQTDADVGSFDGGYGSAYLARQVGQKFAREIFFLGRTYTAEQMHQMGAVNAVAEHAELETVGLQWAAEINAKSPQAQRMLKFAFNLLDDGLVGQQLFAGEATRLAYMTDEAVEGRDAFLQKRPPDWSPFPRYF
Polio RdRp inh = poliovirus RdRp elongation inhibitors, primary screen, biochemical, fluorescence polarization, total intensity. % elongation, % (compound at 16.7 µg/mL). poliovirus polymerase elongation; hits give low values. hit rate 0.66% among 150,000; in the data active = % elongation below about 90%; note: some results filed as inactive read as strong as hits
MbtI inh = MbtI salicylate synthase inhibitors, primary screen, biochemical, fluorescence intensity; inhibition, %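 (about 17 µg/mL by stock and volumes)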; purified MbtI enzyme, fluorescence intensity read-out; hit rate 0.89% among 100,000;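 active = above 50% in both replicates, above 80% if mildly self-fluorescent; inactive = the rest, strongly fluorescent compounds included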;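 note: 0% = mean of negative and 100% = mean of positive controls; one replicate is shown; some compounds called inactive have numbers as strong as hits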
Target sequence (P9WFX0 whole entry, looked up): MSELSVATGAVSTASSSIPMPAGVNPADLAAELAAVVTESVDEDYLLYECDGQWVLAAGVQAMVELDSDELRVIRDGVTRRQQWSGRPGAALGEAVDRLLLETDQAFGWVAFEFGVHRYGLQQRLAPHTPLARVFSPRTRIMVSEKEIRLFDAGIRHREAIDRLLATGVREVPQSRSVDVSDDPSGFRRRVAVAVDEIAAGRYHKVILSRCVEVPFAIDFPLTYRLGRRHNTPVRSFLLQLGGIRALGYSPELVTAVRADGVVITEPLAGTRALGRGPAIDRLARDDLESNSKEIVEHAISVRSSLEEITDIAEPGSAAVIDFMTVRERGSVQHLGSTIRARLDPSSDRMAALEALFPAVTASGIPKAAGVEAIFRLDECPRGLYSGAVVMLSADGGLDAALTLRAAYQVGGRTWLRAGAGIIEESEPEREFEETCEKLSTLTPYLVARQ
Polio RdRp inh intensity = second read-out of Polio RdRp inh, no call of its own (marks repeat the call); % elongation; measured here: total intensity read-out; formula for this scale not given here;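 total fluorescence in place of polarization; lower means less elongation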
An asterisk follows results filed as active; nt = not tested or not shown; & = joins results of further samples.

SMILES	Mtb MenB inh	Polio RdRp inh	Polio RdRp inh intensity	MbtI inh
N#Cc1ccc(COC(=O)c2oc3ccccc3c2COc2ccccc2)cc1	-31	101	106	17
Cc1ccc2cc(OC(=O)c3ccc(Oc4cc(Cl)cc(Cl)c4)o3)ccc2n1	3	103	104	-8
O=C1/C(=C\c2ccccc2)N=C2SCCCCN12	-25	105	98	-24
c1ccc2[nH]c(C3CCN(CCC4OCCO4)CC3)nc2c1	-7	102	108	-8
CCCNC(=O)Nc1[nH]c(C)c(C(=O)OCC)c1C	-2	103	109	-13
Cn1c(O)c(N=Nc2nc3c(c(=O)[nH]c(=O)n3C)n2CCCOc2ccccc2)c(=O)n(C)c1=O	-22	nt	nt	2
O=C1CN(C(=O)COC(=O)c2cc(S(=O)(=O)N3CCOCC3)ccc2Cl)c2ccccc2N1	-16	97	93	19
COC(=O)/C=C1\SC(N2N=C(c3ccco3)CC2c2ccc(OC)cc2)=NC1=O (stereo unspecified)	-12	105	112	-10
Cc1ccccc1COc1ccc2oc(-c3ccccc3)c(C(=O)O)c2c1	-20	102	104	102
O=C(c1ccccc1)N(Nc1ccccc1)c1ccccc1	-7	104	105	-6
O=c1nc(-c2ccc(Cl)cc2)nc(-c2ccc(Cl)cc2)[nH]1	-18	102	105	-3
CCn1c(Cc2cccn2C)nnc1SCC(=O)c1ccc(C)cc1	nt	102	109	2
CC(=O)N1CC(C(=O)N(CC(=O)Nc2cccc(C)c2C)CC2CCCO2)Oc2ccccc21 (stereo unspecified)	-16	108	104	-6
Cc1cc(C(=S)N=P(N(C)C)(N(C)C)N(C)C)c(C)n1-c1ccccc1	-66	96	92	9
CCN(CC)C(=O)Cn1cc(S(=O)(=O)CC(=O)NCc2ccc(F)cc2)c2ccccc21	9	105	99	3
CCOC(=O)/C=C1\SCC(=O)N1CCOC(=O)c1cncc(Br)c1	2	119	126	-1
CC(C)(C)c1cc(O)cc(C(C)(C)C)c1CN1CCN(CCN)CC1	-17	101	104	nt
COc1ccc(Cl)cc1S(=O)(=O)NC(C)C	-10	100	102	4
COc1ccc(-c2noc(CN)n2)cc1OC	9	101	102	-9
CC(=O)N1CCN(C(=S)NC(=O)c2ccc(F)cc2)CC1	-11	106	110	12
CC(=O)Nc1ccc(S(=O)(=O)NCCC(=O)N2CCN(c3cccc(C(F)(F)F)c3)CC2)cc1	-2	101	108	-3
Cc1ccc(S(=O)(=O)/N=C(/Nc2nc(C)cc(C)n2)N2CCc3ccccc32)cc1	0	103	103	8
OCC(O)C(O)C(O)c1cnc2ccccc2n1 (stereo unspecified)	-22	100	107	-9
O=C(CNCCN1CCOCC1)N1CCc2ccccc2C1	-12	98	97	-11
Clc1cc2c(c(C[n+]3ccccc3)c1)OCOC2	-40	106	109	-7
COc1ccc(CNC(=O)c2ccc3c(c2)OCCO3)cc1	-8	101	104	-4
O=S(=O)(/C=C/c1ccccc1)N1CCN(c2ncnc3sccc23)CC1	-22	113	116	12
O=c1[nH]cnc2[nH]ncc12	13	101	101	-10
Cc1cc(Br)c2c(c1)/C(=C1/SC(=S)N(N)C1=O)C(=O)N2C	-15	99	103	-14
CCN(C(=O)CSc1nnc(COc2ccccc2)o1)c1ccccc1	-17	103	101	18
CCSc1nnc2n(-c3ccccc3)c(=O)c3c4c(sc3n12)CCCC4	-42	100	102	3
O=C(c1ccco1)N1CCN(C(=O)c2cccc3c2C(=O)N(C2CCCCC2)C3)CC1	1	102	103	4
O=C(CCN1C(=O)c2ccccc2C1=O)Oc1cccc2cccnc12	-43	117	122	-13
Cc1cc(C)n(CN2CCN(C(=O)c3cccs3)CC2)c(=S)c1C#N	-34	100	89	53
CCCCC[C@H](O)/C=C/C1=C(C/C=C\CCCC(=O)O)C(=O)CC1	2	101&100	101&101	-14
CCOC(=O)c1[nH]c(Cc2[nH]c(C(=O)OCC)c(C)c2CC(=O)OC)c(CCC(=O)OC)c1C	-64	103	103	-17
COc1ccc(C(=O)COc2c(F)c(F)cc(F)c2F)c(OC)c1	-25	102	102	5
O=C(CSCc1ccc(F)cc1)Nc1ccc(N2CCOCC2)cc1N1CCOCC1	-2	nt	nt	-3
CCOc1ccc(CCNc2nnc3c4ccccc4n(CC)c3n2)cc1	8	101	105	-6
CCOc1ccc(CN(CCc2ccc3c(c2)OCO3)Cc2cccnc2)cc1	-12	100	102	9
Cc1cc(C)c(C)c(S(=O)(=O)N2CCN(CN3C(=O)CCSC3=O)CC2)c1C	-10	101	102	1
CCOC(=O)c1cnn(C(=O)c2ccccc2Cl)c1N	-5	100	103	6
Cc1cccc(-n2cnc3cc(C(=O)NCC4CCCO4)ccc32)c1 (stereo unspecified)	-1	101	100	8
CC1=C(C(=O)Nc2cccc(C(=O)N3CCN(C4CCCCC4)CC3)c2)SCCO1	3	102	102	2
COc1ccc(C(=O)/C=C/Sc2nccc(C)n2)cc1	-9	100	102	22

Part of the list above, reformatted.
Fields: Mtb MenB inh | Polio RdRp inh | Polio RdRp inh intensity | MbtI inh
> CCOc1ccc(CN(CCc2ccc3c(c2)OCO3)Cc2cccnc2)cc1
 : -12 | 100 | 102 | 9
> Cc1cc(C)c(C)c(S(=O)(=O)N2CCN(CN3C(=O)CCSC3=O)CC2)c1C
 : -10 | 101 | 102 | 1

The main list resumes, repeating the 3 entries before the break.
SMILES	Mtb MenB inh	Polio RdRp inh	Polio RdRp inh intensity	MbtI inh
Cc1cccc(-n2cnc3cc(C(=O)NCC4CCCO4)ccc32)c1 (stereo unspecified)	-1	101	100	8
CC1=C(C(=O)Nc2cccc(C(=O)N3CCN(C4CCCCC4)CC3)c2)SCCO1	3	102	102	2
COc1ccc(C(=O)/C=C/Sc2nccc(C)n2)cc1	-9	100	102	22
O=C(O)CSCCn1cccn1	-28	102	103	13
CC(C)(CC(=O)O)CC(=O)Nc1ccc(Cl)cc1Cl	12	101	102	-4
Cc1ccc(NC(=O)c2cc3ccccc3oc2=N)cc1	-5	102	106	-6
Cc1cccc2cc(CNCc3ccco3)c(=O)[nH]c12	16	99	105	2
CC1CCCC(NC(=O)Cn2ncc3c(Cl)cccc32)C1C (stereo unspecified)	-32	107	107	0
COc1ccc(N=C2C(=O)Nc3ccccc32)cc1	-26	101	100	4
CC1CCCCN1C(=O)CC(=O)N1CCCCC1C (stereo unspecified)	nt	100	103	0
O=C1C2C(C(=O)N1/N=C/c1ccc(N3CCCCC3)o1)C1C=CC2C12CC2 (stereo unspecified)	-62	101	99	1
CCN(CC)c1nc(N)c2c(N)nc3c(c2c1C#N)C(=O)CN3Cc1ccccc1	-32	100	113	-9
Cn1cnc2cc(NC(=O)C3CCCCC3)ccc21	-74	106	100	-4
Cc1ccccc1-c1nc(CS(=O)CC(=O)N2CCC3(CC2)OCCO3)c(C)o1 (stereo unspecified)	-13	103	109	1
O=C(c1ccc2c(=O)n3c(nc2c1)CCC3)N(Cc1ccco1)Cc1cccs1	8	101	97	9
Cc1ccccc1C(=O)N1CCC(C(=O)N2C(=O)c3cccc(N)c3C2=O)CC1	0	100	93	-3
CCOC(=O)C1(Cc2ccc(O)cc2)NC(c2ccco2)C2C(=O)N(c3ccccc3F)C(=O)C21 (stereo unspecified)	22	102	105	8
Cc1nc(-c2ccc(F)cc2)c(CC(=O)N(Cc2ccco2)Cc2cccs2)s1	2	119	127	7

In the list so far, 3 contain a cyano group.
SMILES	Mtb MenB inh	Polio RdRp inh	Polio RdRp inh intensity	MbtI inh
N#Cc1ccc(COC(=O)c2oc3ccccc3c2COc2ccccc2)cc1	-31	101	106	17
Cc1cc(C)n(CN2CCN(C(=O)c3cccs3)CC2)c(=S)c1C#N	-34	100	89	53
CCN(CC)c1nc(N)c2c(N)nc3c(c2c1C#N)C(=O)CN3Cc1ccccc1	-32	100	113	-9

The list continues.
SMILES	Mtb MenB inh	Polio RdRp inh	Polio RdRp inh intensity	MbtI inh
CC(C)c1ccc(NC(=O)c2coc(=O)c3ccccc23)cc1	6	103	107	-18
Cc1nn(-c2ccccc2)c2sc(C(=O)NC(=S)NCc3ccco3)cc12	-22	100	100	4
CCN(c1ccc(NC(=O)CN(C)Cc2ccccc2)cc1)C(C)C	-1	102	111	-6
COC(=O)C1CNCCN1c1ccccc1 (stereo unspecified)	-1	104	103	nt
CN(C)C(CNC(=O)c1cc2ccccc2o1)c1ccco1 (stereo unspecified)	8	103	103	10
Cc1noc(C)c1COC(=O)[C@@H](NC(=O)Cc1cccc2ccccc12)C(C)C	10	105	108	-2
Cc1cccc(C)c1NC(=O)CCCSc1nnc(-c2ccccc2)o1	14	98	108	-9
Fc1ccccc1Nc1nn(CN2CCCC2)c(=S)s1	12	96	100	93
O=C(/C=C1\Sc2ccccc2NC1=O)NCCN1CCN(c2ccccc2)CC1	-33	99	102	5
O=c1[nH]c(N2CCc3ccccc32)nc2c1CCCC2	-5	99	99	11
COC(=O)CC1(c2ccc(Cl)cc2)C(=O)c2ccccc2C1=O	-33	101	98	-12
S=c1[nH]nc(Nc2ccccc2)s1	-7	103	99	100*
CCOC(=O)c1cc(S(=O)(=O)NC2CCCc3ccccc32)cn1C (stereo unspecified)	3	100	104	-4
N#Cc1cc2c(nc1SCC(=O)Nc1ccc(S(=O)(=O)Nc3ncccn3)cc1)CCC2	-28	98	104	1
CCN1CCN(C(C)C(=O)NC(c2ccccc2)c2ccccc2)CC1 (stereo unspecified)	14	102	101	-9

Record cards, as listed above. Screens in order: Mtb MenB inh, Polio RdRp inh, Polio RdRp inh intensity, MbtI inh
`COc1ccc(N=C2C(=O)Nc3ccccc32)cc1` is entered as -26, 101, 100, 4
`COC(=O)C1CNCCN1c1ccccc1` (stereo unspecified) is entered as -1, 104, 103, nt
`CC1CCCC(NC(=O)Cn2ncc3c(Cl)cccc32)C1C` (stereo unspecified) is entered as -32, 107, 107, 0

Next section
SMILES	Mtb MenB inh	Polio RdRp inh	Polio RdRp inh intensity	MbtI inh
C1=CC(=C2SCCS2)C=C1	-22	103	97	1
COC(=O)c1cc(-c2ccc(Cl)cc2)nc2ccccc12	-20	100	95	23
CN1N=C(c2ccc3c(c2)OCCO3)CCC1=O	-17	100	90	8
CN1C(=O)c2ccccc2C(C(=O)N2CCC3(CC2)OCCO3)C1c1cccs1 (stereo unspecified)	-18	103	102	-6
N#Cc1c(-c2ccccc2)nc(N2CCCC2)[nH]c1=O	-1	101	101	60
CCn1c(-c2ccccc2)c(C(=O)CN2CCN(S(=O)(=O)c3cccs3)CC2)c2ccccc21	-46	106	110	5
Fc1ccc(-c2n[nH]c(=S)n2CCN2CCOCC2)cc1	0	103	108	71
Cc1ccc(C#N)c(=O)[nH]1	0	100	103	90
CCCNC(=O)Nc1cn(CC(C)C)c(=O)c2ccccc12	1	16*	28*	120
c1ccc2c(CN3CCCCC3)c[nH]c2c1	-4	102	104	nt
CC(=O)OCC(=O)Nc1ccccc1C(F)(F)F	-15	103	104	nt
Cc1ccc2c(C(=O)CSc3ccccc3)c(C)[nH]c2c1	7	101	103	0
COC(=O)c1ccc(N2CCN(Cc3ccccc3)CC2)c(N)c1	-66	102	102	89
CC1(C)CC2=NN(c3ccccc3)P(=O)(Nc3ccccc3)C2=C(N2CCOCC2)C1 (stereo unspecified)	5	99	108	4
COc1ccc(CN2CCc3cc(OC)c(OC)cc3C2)cc1O	-50	101	99	4
CCC(=O)NCCc1csc2nc(-c3ccc(Cl)cc3)nn12	-25	101	103	10
COc1ccc(NC(=O)COC(=O)/C=C/c2ccco2)cc1	-10	100	101	4
N#Cc1cnn(-c2nc(-c3ccc(Br)s3)cs2)c1N	-20	107	102	-27
CC1CCCCC1NS(=O)(=O)c1cc(F)ccc1CN1C(=O)c2cccnc2C1=O (stereo unspecified)	-32	104	100	-4
CC(OC(=O)c1ccc(S(=O)(=O)N2CCCc3ccccc32)cc1)C(=O)NCc1ccco1 (stereo unspecified)	-34	100	104	3
COC(=O)CN1C(=O)Nc2ccc(Cl)cc2C1c1ccccc1 (stereo unspecified)	-22	101	108	-3
CC(C)Cn1cc(C(=O)N2CCN(c3ccccc3F)CC2)c2c3ccccc3n(C)c2c1=O	-30	105	104	-6
O=C(CCN1N=C(c2ccccc2)CCC1=O)NCc1ccccc1Cl	-18	102	101	5
CN(Cc1ccccc1)C(=O)Cn1ncc2c3ccccc3n(C)c2c1=O	-31	103	99	80
COc1ccc(OC)c(NC(=S)N(CCc2c(C)[nH]c3ccc(F)cc23)Cc2ccco2)c1	-54	103	96	1
O=S(=O)(Cc1ccccc1Cl)N1CCOCC1	-10	104	104	-3
CCCc1nc2ccccc2n1CC(=O)Nc1sc(C(=O)N(C)C)c(C)c1C(=O)OCC	-23	107	111	-3
O=C(O)C1(O)c2ccccc2NC(=S)N1Cc1ccccc1 (stereo unspecified)	1	96	95	32
CCOC(=O)C1=C(C)NC(=S)N(C=O)C1c1ccccc1 (stereo unspecified)	-88	105	103	8
COc1cccc(CNC(=O)Cn2ncn3c(C)c(C(=O)NC4CCCCC4)c(C)c3c2=O)c1	-7	104	102	-3
N#CCCn1cc(CNCCOc2ccccc2)c2ccccc21	-37	96	84	-10
c1cc(-c2nnc(C34CC5CC(CC(C5)C3)C4)o2)ccn1	-12	97	94	1
CC1CN(Cc2ccccc2)C(C)CC1O (stereo unspecified)	2	101	101	nt
Cc1ccc2cccc(OCc3ccc(Br)cc3)c2n1	-15	101	105	18
CC(C)Cc1ccc2c(N)c(C(=O)c3ccccc3)sc2n1	-45	131	155	nt
COc1ccc(N(C)C(=O)CCc2nc(-c3ccccc3F)no2)c(OC)c1	-21	101	105	-3
Cc1ccc(-n2nc(C)c3c(C)cc(C(=O)NCc4ccc(CN5CCOCC5)o4)nc32)cc1	3	101	106	-3
